Screening results (PubChem BioAssay)
VACV mCherry inh: inhibitors of vaccinia virus infection (mCherry reporter signal); Potency, µM (titrated, usually from 36.5 µM), inactives show at the highest dose activity change, negative = inhibition, hits mostly inhibitors; 310,000 tested, 0.63% active; Vaccinia virus mCherry reporter infection, fluorescence; about a quarter of the inactives have no number; active = well fitted inhibition curve with a large enough effect; inconclusive = small, poorly fitted or top-dose-only effect; inactive = no such curve, though single readings can be large or run the other way; tested in A549 cells; also: nearly all actives have a fitted effect of over 35% in size; inactives centre near -10
Vaccinia Venus: vaccinia inhibition (Venus reporter). 330,000 tested, 0.46% active. Vaccinia virus Venus reporter expression, fluorescence. AID 720580. Potency, µM (titrated, usually from 36.5 µM), without a hit: at the top dose activity change, negative = inhibition, usual class: inhibitors; active means well fitted inhibition curve with a large enough effect; inconclusive means small, poorly fitted or top-dose-only effect; inactive means no such curve, though single readings can be large or run the other way; tested in A549 cells; also: nearly all actives have a fitted effect of over 30% in size; inactives centre near -10
* = called active by the depositor; i = inactive; u = inconclusive; x = not tested or not shown; & = joins results of further samples; [ ] = dose if it differs, or a comment. % is scaled to controls: 0 for no effect and ±100 for the full control effect; potency is read from the fitted curve at half-maximal effect.

SMILES	VACV mCherry inh	Vaccinia Venus
Fc1ccccc1NC(=S)N1CCN(Cc2ccccc2)CC1	-23%	-6%
CCOC(=O)c1cnc2c(-c3ccccc3)c(-c3ccccc3)nn2c1C	i	-7%
O=C(CCC(=O)N(CC(=O)NC1CCCCC1)Cc1ccco1)Nc1nccs1	x	1%
COc1ccc(NC(=O)CSc2nc3nc(C)cc(C)n3n2)cc1OC	-6%	-8%
COc1ccc(NC(=S)Nc2cccc3cnccc23)cc1	-15%	-7%
CCNC(=O)COc1ccc(Br)cc1Cl	-26%	-15%
Cc1ccc(NC(=O)CC2CCCC2)c(Br)c1	-10%	-6%
COc1ccc(CN2C(=O)CSC2c2ccncc2)cc1 (centres undefined)	i	-10%
CCOc1ccc(S(=O)(=O)NCc2ccccn2)cc1	i	-14%
CC(Oc1ccccc1Cl)C(=O)Nc1ccc(S(=O)(=O)N2CCOCC2)cc1 (centres undefined)	i	-19%
CC(=O)c1ccc(NC(=S)Nc2cccc(S(=O)(=O)Nc3c(C)n(C)n(-c4ccccc4)c3=O)c2)cc1	-7%	-5%
CC(=O)N1CCc2cc(S(=O)(=O)CCC(=O)N3CCC(C)CC3)ccc21	-1%	-9%
CCCCN(C(=O)NC(=O)Nc1ccccc1OC)S(C)(=O)=O	-8%	-4%
Cc1ccc(S(=O)(=O)N2CCN(S(=O)(=O)N3CCCCC3)CC2)cc1	-6%	-2%
COc1ccc(CSc2nnc(SCc3ccc([N+](=O)[O-])cc3)s2)cc1	-24%	-18%
CCNC(=O)N(CC)C[C@H]1N[C@@](CC)(C(=O)OC)[C@H]2C(=O)N(Cc3ccccc3)C(=O)[C@@H]12	-14%	-1%
O=C(NC(=S)Nc1nc(-c2ccc(Br)cc2)cs1)c1cccnc1	u	-12%
COCCN1C(=O)C(=O)/C(=C(/O)c2ccc(S(=O)(=O)N3CCOCC3)cc2)C1c1cccc(O)c1 (centres undefined)	-4%[7.34 µM]	5%[7.34 µM]
CCOC(=O)c1ccc(NC(=O)CN(c2ccc(C)cc2)S(=O)(=O)c2c(C)n[nH]c2C)cc1	-4%	-23%
CCN1CCN(C(=O)CN2C(=O)c3cccc4cccc2c34)CC1	x	-12%
CC/C(C)=C1\SC(N2CCOCC2)=NC1=O	x	u
Cc1ccc(NS(=O)(=O)c2ccc(Cl)s2)cc1S(=O)(=O)N(C)C	-20%	-6%
Cc1ccc(-c2c(C#N)c(N)nc3c2CCCCCC3)o1	u	-8%
O=c1[nH]c2ccc(NCc3ccc(-c4cccc(Cl)c4)o3)cc2[nH]1	-24%	-19%

Copied from the list:
Vaccinia Venus, O=C(NC(=S)Nc1nc(-c2ccc(Br)cc2)cs1)c1cccnc1 = -12%
VACV mCherry inh, COCCN1C(=O)C(=O)/C(=C(/O)c2ccc(S(=O)(=O)N3CCOCC3)cc2)C1c1cccc(O)c1 (centres undefined) = -4%[7.34 µM]
Vaccinia Venus, CCNC(=O)N(CC)C[C@H]1N[C@@](CC)(C(=O)OC)[C@H]2C(=O)N(Cc3ccccc3)C(=O)[C@@H]12 = -1%
Vaccinia Venus, O=c1[nH]c2ccc(NCc3ccc(-c4cccc(Cl)c4)o3)cc2[nH]1 = -19%
VACV mCherry inh, CCOC(=O)c1ccc(NC(=O)CN(c2ccc(C)cc2)S(=O)(=O)c2c(C)n[nH]c2C)cc1 = -4%

Next results:
SMILES	VACV mCherry inh	Vaccinia Venus
CCOCCCNC(=S)N1C2CCC1CC(NC(=O)NC1CCCCC1)C2 (centres undefined)	-12%	-6%
COc1ccc([C@@H]2C[C@@H](c3ccccc3)Oc3cc(OC)c(OC)c(OC)c32)cc1	3%	-7%
CC(C)CN1C(=O)CSCC1(C)C(=O)NC(C)C (centres undefined)	i	7%
COc1ccc(C(CCN2CCCC(C)C2)c2c(OC)cc(OC)c3c2OC(=O)CC3c2cc(OC)c(OC)c(OC)c2)cc1 (centres undefined)	12%	-6%
O=C(CSc1cccc2cccnc12)Nc1ccccc1F	-6%	-22%
COc1ccc(OCCn2c(NC(=O)c3ccco3)nc3ccccc32)cc1	-23%	u
CN(C)c1ccc(CNS(=O)(=O)c2ccc(-c3cc(C(F)(F)F)on3)s2)cc1	-7%	-8%
COc1ccc(NC(=O)CNCCC2=CCCCC2)cc1	-7%	-3%
CC(=O)c1ccccc1NC(=O)c1ccc2c(c1)NC(=O)C(C)S2 (centres undefined)	2%	0%
CCn1cnc2c1c(=O)n(Cc1cccc([N+](=O)[O-])c1)c(=O)n2Cc1ccccc1	-25%	-8%
Clc1ccc(CSc2nnc(/C=C/c3ccccc3)o2)cc1	x	2%
Cc1ccc2c(c1)CCCO[C@]21O[C@H](CCO)C[C@H](O)[C@H]1O	i	-7%
CC(=O)N1CCN=C1SCc1ccccc1Cl	8%	1%
CC1(C)Cc2c(c(=S)nc(-c3ccccc3)n2CCOCCO)CO1	x	1%
COC(=O)c1ccc(CCc2cc(O)c(Br)cc2O)cc1	i	-5%
CSc1ccc(Cl)c(C(=O)NCc2ccco2)c1	x	-2%
Cc1ccccc1-c1noc(CCC(=O)NCc2ccco2)n1	i	-11%
Cc1nc(N2CCCC2)c2c(C(=O)N3CCN(c4cc(Cl)ccc4C)CC3)c(C)oc2n1	-13%	-6%
CCC(C)(C)NC(=O)C(c1cccc(OC)c1OC)N(Cc1ccccc1)C(=O)CCC(=O)Nc1cc(C)on1 (centres undefined)	-9%	-10%
COc1ccc(N2CC(NS(=O)(=O)c3cccs3)CC2=O)cc1 (centres undefined)	i	-3%
Cc1cccc(C)c1-n1nnnc1C1(C)CCC(=O)N1CCOc1ccccc1 (centres undefined)	-2%	-4%
Cc1cc(Nc2ccc3c(c2)OCCO3)c2cccc(C)c2n1	i	-5%
Cc1ccc(NC(=O)Cc2noc3ccccc23)nc1	i	2%
CN(C)CCN(C)Cc1c2ccccc2c(CN(C)CCN(C)C)c2ccccc12	-13%	-27%

Arranged by molar mass (high to low): some entries from above.
SMILES	VACV mCherry inh	Vaccinia Venus
CCC(C)(C)NC(=O)C(c1cccc(OC)c1OC)N(Cc1ccccc1)C(=O)CCC(=O)Nc1cc(C)on1 (centres undefined)	-9%	-10%
COC(=O)c1ccc(CCc2cc(O)c(Br)cc2O)cc1	i	-5%
Cc1ccccc1-c1noc(CCC(=O)NCc2ccco2)n1	i	-11%
Cc1cc(Nc2ccc3c(c2)OCCO3)c2cccc(C)c2n1	i	-5%
CSc1ccc(Cl)c(C(=O)NCc2ccco2)c1	x	-2%

The listing continues.
SMILES	VACV mCherry inh	Vaccinia Venus
O=[N+]([O-])c1ccc(S(=O)(=O)NN=Cc2ccc(Cl)c(Cl)c2)cc1	-19%	-19%
COc1ccc(NC(=O)C2CCN(c3nc(-c4ccc(OC)c(OC)c4)no3)CC2)cc1Cl	-7%	13%
Cc1ccccc1Cn1cc(NC(=O)c2nn(C)cc2Cl)cn1	-16%	0%
CCN1CCN(c2nc3c(c(=O)[nH]c(=O)n3C)n2Cc2cccc(C)c2)CC1	i	-11%
Cc1cccc(N2C(=O)C(Oc3ccc(Cl)cc3Cl)C2C(=O)O)c1C (centres undefined)	-13%	-6%
Cc1c(Cl)cccc1NC(=O)c1ccc2nc(C(C)C)oc2c1	i	4%
CCC(=O)n1nc(-c2cccnc2)nc1NCc1ccc(OC)cc1	x	-6%
Clc1ccc(C=NC23CN4CN(CN(C4)C2)C3)cc1	x	-8%
O=C(COC(=O)c1cccs1)NCc1ccco1	-16%	-12%
CCN(CC(=O)NCc1ccc(Cl)cc1)C(=O)CSc1cccc(C(F)(F)F)c1	u	-24%
Cc1oc2ncn(C)c(=O)c2c1C(=O)NCCCN(Cc1ccccc1)C(C)C	-14%	-4%
O=C(CCn1cccn1)N1CCCC(Nc2ccc(F)c(F)c2)C1 (centres undefined)	-23%	2%
Cc1ccccc1C(=O)Nc1nnc(-c2ccc(C(C)(C)C)cc2)s1	-17%	-9%
COC(=O)C1CN(S(=O)(=O)c2cc(OC)ccc2OC)CCS1 (centres undefined)	u	-1%
Cc1nc2ccccc2n1/N=C/c1ccc([N+](=O)[O-])s1	-30%	-19%
CCOC(=O)c1nnn(-c2nonc2-n2cccc2)c1C	x	-5%
COc1cccc(C2CC(=O)Nc3cc(OC)c(OC)c(OC)c32)c1OC (centres undefined)	x	-11%
CC(=O)Oc1ccc(N2C(=O)C3C4C=CC(C5CC45)C3C2=O)cc1[N+](=O)[O-] (centres undefined)	-14%	-7%
CCN(CC(=O)Nc1ccc2c(c1)OCCO2)C(=O)c1cccc(S(=O)(=O)N2CCOCC2)c1	-12%	1%
O=C(CSc1nccc2ccccc12)N1CCN(c2ccccn2)CC1	-27%	-21%
CC1CC(c2ccccc2)n2nc(NC(=O)c3cccs3)nc2N1 (centres undefined)	x	-17%
COc1ccc(NC(=O)N(C)C[C@H]2Oc3c(NC(=O)NC(C)C)cccc3C(=O)N([C@H](C)CO)C[C@@H]2C)cc1	-9%	-9%
CCOC(=O)N1CCC(=C2c3ccc(Cl)cc3CCc3cccnc32)CC1	-19%&-11%	-29%&-1%
COc1cccc(-n2c([S-])c(C(=O)Nc3ccc(S(=O)(=O)N4CCOCC4)cc3)[n+]3cc(C(N)=O)ccc23)c1	i	2%

One compound at a time, from the list above. Values in the order: VACV mCherry inh | Vaccinia Venus
O=C(CSc1nccc2ccccc12)N1CCN(c2ccccn2)CC1 is entered as -27% | -21%
CCOC(=O)N1CCC(=C2c3ccc(Cl)cc3CCc3cccnc32)CC1 is entered as -19%&-11% | -29%&-1%
COC(=O)C1CN(S(=O)(=O)c2cc(OC)ccc2OC)CCS1 (centres undefined) is entered as u | -1%
Cc1nc2ccccc2n1/N=C/c1ccc([N+](=O)[O-])s1 is entered as -30% | -19%
Cc1ccccc1C(=O)Nc1nnc(-c2ccc(C(C)(C)C)cc2)s1 is entered as -17% | -9%

Further records
SMILES	VACV mCherry inh	Vaccinia Venus
O=C(NCc1ccccc1)/C(=C/c1ccc([N+](=O)[O-])cc1)NC(=O)c1ccco1	12%	2%
CC(NC(=O)c1ccccc1N)c1ccccc1 (centres undefined)	-10%	-6%
Cc1cc(C)nc(NS(=O)(=O)c2ccc(NC(=O)c3cc(=O)c4ccc(C)c(C)c4o3)cc2)n1	-3%	2%
CCOc1cc(NC(=S)NCCCN2CCOCC2)c(OCC)cc1NC(=O)c1ccccc1	-27%	5%
CCN(Cc1ccccc1)C(=O)c1nn(-c2ccc(OC)cc2)c(=O)c2c1c1ccccc1n2C	-23%	-15%&-19%
CSC1=NC2(CCN(C(=O)NC3CCCCC3)CC2)N=C1c1ccc(C)cc1	-17%	-16%
Clc1ccc2c(c1)C(c1ccccc1Cl)=NCc1nnc(N3CCN(CCSc4ccccc4)CC3)n1-2	-15%	-4%
CCCNC(=O)N1[C@H]2CC[C@@H]1C(C(=O)OC)=C(c1cccc(C#N)c1)C2	-14%	-9%
CN(C)c1cc(Nc2cccc(O)c2)c([N+](=O)[O-])c2nonc12	i	1%
CC(=O)Nc1ccc(S(=O)(=O)NCCC(=O)OCC(=O)NNC(=O)c2ccccc2)cc1	-24%	-5%
COc1cccc2c1CCC1=CC(=O)CCC12C (centres undefined)	-9%	-10%
CCOC(=O)N1CCN(c2ncc3c(n2)CC(c2ccc(Cl)cc2)CC3=O)CC1 (centres undefined)	-15%	-12%
COc1ccc2oc(C(=O)OCC(=O)NC(=O)c3ccccc3)c(C)c2c1	-2%	-8%
O=C(NC1CCc2ccccc21)c1cc(COc2c(F)cccc2F)on1 (centres undefined)	-1%[7.34 µM]	0%[7.34 µM]
CC(C(=O)N1CCOCC1)(c1ccccc1)c1ccccc1	-10%	-4%
CC(C)CN(C(=O)COC(=O)c1ccccn1)c1c(N)n(Cc2ccccc2)c(=O)[nH]c1=O	-7%	-11%
O=C(NC1CC1)c1ccc(Cn2c(SCc3ccccc3F)nc3cccnc32)cc1	-12%	-3%
Cc1c(NS(=O)(=O)c2cc(C(=O)NCc3cccnc3)ccc2Cl)c(=O)n(-c2ccccc2)n1C	i	-7%
Cc1ccc(-n2c(O)c(C=NCc3ccco3)c(=O)[nH]c2=S)cc1C	u	1%
COc1ccc2nc(NC(=O)C3CCCO3)sc2c1 (centres undefined)	-19%	2%
CCCCOC(=O)Nc1nnc(-c2ccccc2OC)s1	x	3%
Cc1ccc(Cl)cc1NC(=O)CCC(=O)O	i	-9%
CCC(CC)c1nc(C#N)c(NC(C)c2ccccc2)o1 (centres undefined)	-10%	-6%
CC1(C(=O)NS(=O)(=O)c2cccc(F)c2)CCN1C(=O)c1ccccc1 (centres undefined)	15%	-3%
O=C(CN1CCC(C(O)(c2ccccc2)c2ccccc2)CC1)Nc1ccccc1	-13%	-14%
Cc1cccc(C)c1-n1c(C)nn(CCOc2ccccc2)c1=O	-5%	0%
O=C(N/N=C/c1ccc(OC(=O)c2ccccc2)cc1)c1ccc(CN2CCOCC2)cc1	-5%	-3%
COc1cccc(NC(=O)CSc2nccn2Cc2ccc3c(c2)OCO3)c1	-9%	3%
CCCS(=O)(=O)NC(=O)C1(C)CCN(C(=O)c2ccccc2C(F)(F)F)C1 (centres undefined)	4%	-5%
COc1ccc(C2CC(c3ccc(Br)cc3)=NN2C(=O)CN2CCCC2)cc1 (centres undefined)	-8%[7.34 µM]	-10%[7.34 µM]
COc1ccc(N2C(=O)N3[C@H](c4ccc(Cl)cc4)[C@@H]4C(=O)N(C5CCCCC5)C(=O)[C@@H]4[C@]3(Cc3ccc(Cl)cc3)C2=O)cc1	-3%	-18%
Cc1c(C(=O)NCC2(N3CCOCC3)CCCC2)cnn1-c1nccc(-c2ccccc2F)n1	-29%	-20%
Cc1nc(C(=O)N2CCCC(N3CCN(c4ccc(F)cc4)CC3)C2)cs1 (centres undefined)	u	-3%
COc1ccc(C2=CC(=O)C[C@H](c3ccc(F)cc3)C2)c(OC)c1	-2%	-20%
Cc1ccc(Cn2ccnc2SCC(=O)NCc2ccccc2Cl)cc1	i	-13%
